AF4-AF9 inh: MLL-AF4/AF9 protein interaction inhibition; AlphaScreen, biotin-AF4 peptide binding to FLAG-AF9; inhibition, % at 10 µM; AID 651704; P42568; actives 0.47% (n = 350,000);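 active = every replicate reaching a set inhibition limit, whatever the replicate mean, cut at about 25% in these data; inconclusive = mean inhibition reaches that limit but some replicates miss it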;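 also: 0% = plate neutral control median and 100% = total signal loss; the record names both 10 and 1 µM as test concentration; the first replicate is given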
Target sequence (P42568 whole entry, looked up): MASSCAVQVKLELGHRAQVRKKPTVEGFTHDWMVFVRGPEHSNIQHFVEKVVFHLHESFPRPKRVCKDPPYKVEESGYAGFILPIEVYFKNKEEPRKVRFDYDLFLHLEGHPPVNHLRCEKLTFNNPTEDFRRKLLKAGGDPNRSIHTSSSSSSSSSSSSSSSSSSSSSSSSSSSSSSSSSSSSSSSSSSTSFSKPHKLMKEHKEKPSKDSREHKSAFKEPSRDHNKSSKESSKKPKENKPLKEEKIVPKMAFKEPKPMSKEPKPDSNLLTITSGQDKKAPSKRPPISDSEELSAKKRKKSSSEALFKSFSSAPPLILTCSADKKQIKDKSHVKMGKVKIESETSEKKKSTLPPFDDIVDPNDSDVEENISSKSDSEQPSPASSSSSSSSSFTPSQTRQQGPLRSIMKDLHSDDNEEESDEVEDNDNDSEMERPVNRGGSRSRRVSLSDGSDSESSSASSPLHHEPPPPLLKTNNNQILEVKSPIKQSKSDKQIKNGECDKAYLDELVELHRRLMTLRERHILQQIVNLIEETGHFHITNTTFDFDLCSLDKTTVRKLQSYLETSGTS
Vif TR-FRET: inhibitors of Vif binding to APOBEC3G peptide, primary screen, biochemical, TR-FRET, GST-Vif 1-94, biotin-A3G peptide, dose response retest (AID 1117319). inhibition, %; hits with a dose series show IC50 in µM. actives 0.57% (n = 260,000). TR-FRET GST-Vif / biotin-A3G peptide binding; higher % means a stronger effect; test concentration not given here; strong numbers were not always called active;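 active = above the screen mean plus three standard deviations and confirmed in dose response; inconclusive = results disagree or hit not tested in dose response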;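 also: Vif residues 1-94 fused to GST binding biotinylated APOBEC3G peptide 110-148; 0% = full assay without inhibitor and 100% = GST in place of GST-Vif; retest series ran down from 100 µM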
Numbers without * were called inactive; u = inconclusive; & = joins results of further samples. An excerpt, so the mix of outcomes need not match the whole.

AF4-AF9 inh	Vif TR-FRET	mol
-2.1	0%	COc1ccc2[nH]c3c(c2c1)CCN1C(=O)C(CC(=O)NCCc2ccccn2)C[C@H](C(=O)N2CCOCC2)[C@@]31C (some centres undefined)
7.2	-8%	COc1ccc2cc(C3=CCCC3(C)C(=O)O)ccc2c1 (centres undefined)
-2.3	4%	CN(CC(=O)Nc1ccc(Cl)c(Cl)c1)CC(=O)N1CCCCCC1
1.3&0.7&3.5	-7%	C[C@H]1CN([C@@H](C)CO)S(=O)(=O)c2ccc(-c3cccc(F)c3)cc2O[C@@H]1CN(C)C
-0.1	-1%	O=C(CCN=C1NS(=O)(=O)c2ccccc21)OCc1c(F)c(F)c(F)c(F)c1F
-13	9%	O=C1c2cc3c(cc2CCC1c1ccc2c(c1)OCO2)OCO3 (centres undefined)
0.6	-7%	O=C1OC(c2ccccc2)(c2ccc3cc(O)ccc3c2)c2ccccc21 (centres undefined)
1.2	-2%	CN1CCCN(S(=O)(=O)c2ccccc2)c2nc3ccccc3nc21
-25	-3%	Cc1ccc(C(=O)COC(=O)c2cc(C)no2)c(C)c1
-0.6	2%	O=C(Cc1cccc(NC(=O)C2CCN(S(=O)(=O)c3cccc([N+](=O)[O-])c3)CC2)c1)Nc1cccc(C(=O)N2CCOCC2)c1
-2.4&-1.3&0.8	-3%	C[C@H]1CN([C@@H](C)CO)C(=O)CCCn2cc(nn2)CO[C@@H]1CN(C)C(=O)Nc1cccc(C(F)(F)F)c1
1.5	-1%	Cc1ccc(S(=O)(=O)NOCc2ccccc2)cc1
1.6	3%	CCOc1ccc(NC2=CC(=O)C(=O)c3ccccc32)cc1
-1.0	-9%	COc1ccc(F)cc1S(=O)(=O)N1CCc2ccccc2C1
3.1	0%	CCCn1c(C)cc(C(=O)COC(=O)c2cc(=O)[nH]c3ccccc23)c1C
-1.9	-6%	O=C1C(=Cc2ccccc2O)SC(=S)N1CCCN1CCOCC1
-1.2	-3%	CC1CC(C)(C)C2=NCCN21 (centres undefined)
-2.8&-0.9	-7%	C[C@@H]1CN([C@H](C)CO)C(=O)CCCn2nncc2CO[C@H]1CN(C)C(=O)c1ccccc1
-4.5	4%	Cc1nc(NCCCN2CCOCC2)c2cnn(-c3ccccc3)c2n1
5.3	6%	CC1CC1C(=O)Nc1ccc(S(=O)(=O)N2CCCCC2)cc1 (centres undefined)
-2.2	1%	COc1ccccc1N1CCN(c2ccc3c(c2)S(=O)(=O)c2cccc(C(=O)NCc4ccc(F)cc4)c2C3=O)CC1
0.0	-1%	COc1cc(NC(=O)C2CC(c3ccccc3O)=NO2)cc(OC)c1OC (centres undefined)
-3.2&-1.4	-2%	COc1ccccc1CN(C)C[C@H]1OCc2cnnn2CCCC(=O)N([C@@H](C)CO)C[C@@H]1C
-1.6	2%	CC(C)N1CC2(CC(c3ccc(Cl)cc3Cl)=NO2)CN1C(=O)c1ccc(C(C)(C)C)cc1 (centres undefined)
-3.7	-5%	CC[C@]12c3[nH]c4cc(-c5ccco5)ccc4c3CCN1C(=O)[C@@H](CC(=O)NCc1cccc(C(F)(F)F)c1)C[C@@H]2C(=O)N1CCN(C(=O)c2ccco2)CC1
-2.1	-5%	Cc1ccc(S(=O)(=O)N2CCc3ccccc3CC2)cc1
-2.8	0%	O=C(NNS(=O)(=O)c1ccc([N+](=O)[O-])cc1)c1ccccc1
7.4	2%	CC(C)N(C(=O)[C@H]1C[C@H](CC(=O)NCCCN(C)C)C(=O)N2CCc3c([nH]c4ccc(Cl)cc34)[C@]12C)C(C)C
-4.7	-8%	COc1cc(OC)c2c(-c3cccc(/C=C/c4ccc(F)cc4)c3)cc(=O)oc2c1
-2.9	11%	O=C(Nc1ccccc1SC(=O)c1ccccc1)c1ccccc1
-4.0	1%	CCOC(=O)C1=C(Nc2ccc(OC)cc2)C(N)=NC1=N
-1.8	-4%	CN(CC(=O)Nc1cccc(F)c1)C(=O)CNC(=O)Cc1cccc2ccccc12
11	3%	Cc1ccc(C(=O)NCC(=O)N(C)Cc2cccc(F)c2)s1
0.4	-8%	Cc1cccc(-c2ccc3c(c2)C2CC3CCN2C)c1 (centres undefined)
1.1	-8%	CC[C@]12c3[nH]c4cc(CCC(=O)N(C)C)ccc4c3CCN1C(=O)[C@@H](CC(=O)NCCN1CCOCC1)C[C@@H]2C(=O)N1CCN(C(=O)C2CC2)CC1
-0.4	-6%	COc1ccc2cc(C#CC3=CC(=O)C[C@H](c4ccc(F)cc4)C3)ccc2c1
0.7	2%	CCOC(=O)C1CCCN(CC(=O)Nc2ccc(C(=O)Nc3ccccc3OC)cc2)C1 (centres undefined)
-5.7	-9%	Cc1cccc(C)c1N1C(=O)CC(Sc2ccccc2N)C1=O (centres undefined)
-2.7	-3%	Cc1cc(C(=O)O)cc(S(=O)(=O)Nc2ccccc2C(=O)NC2CC2)c1C
-0.2	-8%	Cc1ccc(OCC(=O)Nc2ccc(C)c(F)c2)c([N+](=O)[O-])n1
-6.9	-6%	c1nnc(NCNc2nncs2)s1
-3.3&-1.2	-1%	O=C(C[C@H]1C[C@H]2c3cc(NS(=O)(=O)c4ccc(F)cc4)ccc3O[C@H]2[C@H](CO)O1)NCc1ccncc1
-1.5	6%	CC1=C(C(=O)N(C)C)CC(CC(=O)NCCc2ccccn2)C(=O)N1Cc1ccc(C(C)(C)C)cc1 (centres undefined)
-3.2	5%	Cc1ccc(S(=O)(=O)N2C[C@@H](C)[C@]3(C2)[C@H](O)[C@H](OC(=O)NCc2ccccc2)C[C@H]2C(=O)N(c4ccccc4)C(=O)[C@H]23)cc1
-3.9	-3%	COc1ccc(C(=O)NCC(=O)NCc2ccc3c(c2)OCO3)cc1[N+](=O)[O-]
-1.1	0%	CC(=O)N1CCOc2ccc(S(=O)(=O)NC[C@H]3O[C@@H](n4ccc(N)nc4=O)[C@H](O)[C@@H]3O)cc21
5.7	48µM*	Oc1cc2c(cc1O)[C@@H](c1ccccc1)CNCC2
18	2%	COc1ccc(-n2c(C)c3c(C)nnc(C)c3c2C)cc1OC
-1.9&-5.6	-5%	C[C@H](CO)N1C[C@H](C)[C@@H](CN(C)Cc2ccc(C(=O)O)cc2)Oc2ncc(Br)cc2C1=O
0.1	1%	NS(=O)(=O)c1ccc(NC(=O)COC(=O)c2ccc(S(=O)(=O)N3CCOCC3)cc2)cc1

Continued:
AF4-AF9 inh	Vif TR-FRET	mol
-1.3	-1%	CN1/C(=C/C(=O)COC(=O)C2COc3ccccc3O2)C(C)(C)c2ccccc21 (centres undefined)
1.5&1.0	-3%	COc1cccc(S(=O)(=O)Nc2ccc3c(c2)[C@H]2C[C@H](CC(=O)N[C@@H](C)c4ccccc4)O[C@H](CO)[C@H]2O3)c1
-7.2	2%	CC(=O)c1ccc(CCCCc2ccc(C(C)=O)cc2)cc1
0.8	1%	Cc1ccccc1N1CCN(C(=O)c2cc(-c3ccccc3)nc3c2cnn3C(C)C)CC1
6.7	3%	CCCC1NC(=O)c2cc3ccccc3cc2-n2c1nc1ccc(F)cc1c2=O (centres undefined)
-0.9	6%	Cc1ccc2nc3cc([N+](=O)[O-])cc([N+](=O)[O-])c3cc2c1
-0.9	0%	c1ccc2nc(N3CCOCC3)c(N3CCCC3)nc2c1
0.4	6%	COc1ccc(N(CC(=O)NC2CC3CCC2C3)S(=O)(=O)c2ccc(C)cc2)cc1Cl (centres undefined)
-6.9	-2%	CN1C(=O)N(CC(=O)N2CCN(S(=O)(=O)c3ccc4c(c3)CCC4)CC2)C(=O)C12CCCCC2
-4.2	-3%	CN(C(=O)c1cc2c(cc1Br)OCO2)c1cccc2ccccc12

Structures shown so far with a COOH group, in the order listed:
AF4-AF9 inh	Vif TR-FRET	mol
7.2	-8%	COc1ccc2cc(C3=CCCC3(C)C(=O)O)ccc2c1 (centres undefined)
-2.7	-3%	Cc1cc(C(=O)O)cc(S(=O)(=O)Nc2ccccc2C(=O)NC2CC2)c1C
-1.9&-5.6	-5%	C[C@H](CO)N1C[C@H](C)[C@@H](CN(C)Cc2ccc(C(=O)O)cc2)Oc2ncc(Br)cc2C1=O

Next part
AF4-AF9 inh	Vif TR-FRET	mol
-18	3%	O=C(c1cccc(S(=O)(=O)N2CCc3ccccc32)c1)N1CCN(c2ccccc2)CC1
0.3	-4%	O=c1ccn([C@@H]2O[C@H](CNS(=O)(=O)c3cc4ccccc4s3)[C@@H](O)[C@H]2O)c(=O)[nH]1
-11	0%	Cc1csc(SCC(=O)N(C)C2CCS(=O)(=O)C2)n1 (centres undefined)
-3.3	-3%	CC1=C2C3OC(=O)C(C)C3CCC2(C)C=C(Br)C1=O (centres undefined)
-0.1	-3%	Cc1cccc(N=[N+]([O-])c2cccc(C)n2)n1
0.1&-0.1	-5%	C[C@@H]1CN([C@H](C)CO)C(=O)CCCn2nncc2CO[C@H]1CN(C)C(=O)OCc1ccccc1
0.7	5%	Cc1ccc(C(=O)CCC(=O)OCC(=O)N2c3ccccc3NC(=O)C2(C)C)cc1
0.8	0%	O=S(OCCN1CCCC1)C(c1ccccc1)c1ccccc1 (centres undefined)
-2.1	-5%	COc1ccc(C(=O)Nc2ccc3nc(C)sc3c2)cc1S(=O)(=O)N1CCOCC1
-3.4	0%	Cc1onc(-c2ccccc2Cl)c1C(=O)NCc1nnnn1-c1ccc(F)c(F)c1
-8.9	-5%	COc1ccc(Br)c(C(=O)OCC(=O)Nc2cc(C)on2)c1
-1.1	5%	CN(C(=O)COC(=O)c1c[nH]c2ccccc12)c1ccccc1
0.7	-2%	COc1ccccc1-c1ccc([C@@H]2C[C@H]3[C@H](CON3C)CN2C(=O)c2ccc(-c3ccccc3)cc2)cc1
-14	-6%	COc1ccc(C(=O)NCC(=O)OCc2c(Cl)cccc2Cl)cc1OC
0.7	-1%	Cn1cnc2ncnn2c1=S
2.3	-13%	COc1ccc(S(=O)(=O)N2CCOCC2)cc1NC(=O)c1ccc(OCC(C)C)c(OC)c1
-2.1	-7%	CC(=NNC(=S)N1CC2CCC(CC2)C1)c1ccccn1
2.6	-3%	CCNC(=O)N(C)C[C@H]1N[C@@](Cc2ccccc2)(C(=O)OC)[C@H]2C(=O)N(C)C(=O)[C@@H]12
-3.1	1%	CC[C@]12c3[nH]c4ccc(Cl)cc4c3CCN1C(=O)[C@@H](CC(=O)NCCc1ccccn1)C[C@@H]2C(=O)N1CCN(C(=O)c2ccco2)CC1
-0.9	-6%	Cc1ccc(OC(=O)c2ccc3c(=O)n4c(nc3c2)CCC4)cc1
0.2	9%	Cc1cccc(OCCC(=O)OCC(=O)N2c3ccccc3NC(=O)C2(C)C)c1
-0.6	3%	CCN1Cc2cc(OC)ccc2-c2ccccc2S1(=O)=O
6.3	4%	CCOC(=O)N1Cc2cc3ccccc3nc2C1
-2.0	-1%	COc1cccc(NC(=S)N2CCC(C(=O)c3ccc(F)cc3)CC2)c1
-1.9	-10%	O=C(c1cc(C2CC2)nn1-c1ccccc1)N1CCN(S(=O)(=O)c2ccccc2F)CC1
-2.5	-3%	Cc1cc(C(=O)NNC(=O)Cc2ccc(Cl)c(Cl)c2)c(C)o1
-1.3	6%	Cc1noc(C)c1COc1ccccc1C(=O)NC(C)CCc1ccccc1 (centres undefined)
30*	-2%	Oc1ccccc1C=NCCN1CCN(CCN=Cc2ccccc2O)C1c1ccccc1O (centres undefined)
-6.9	-3%	CCOC(=O)c1ccc(NC(=O)C2(N3C(=O)c4ccccc4C3=O)CCCC2)cc1
1.7	-3%	CCOc1ccc(CN(C)C(=O)CN2C(=O)NC(c3ccccc3)(c3ccccc3)C2=O)cc1
2.0	0%	O=C(COC(=O)c1c(F)cccc1F)NC(=O)NCc1ccccc1
0.8	3%	CCOC(=O)C1=CN(Cc2ccco2)S(=O)(=O)N(C)C1c1ccc(F)c(Cl)c1 (centres undefined)
-3.6	10%	CN(C(=O)c1cccc(NC(=O)Cc2cccc(NC(=O)C3CCCN(C(=O)C4CCC4)C3)c2)c1)C1CCC1 (centres undefined)
3.8	5%	Cc1ccc(CN2CC(C(=O)Nc3ncc(C)s3)CC2=O)cc1 (centres undefined)
-7.6	-7%	C[C@@H]1CC=C[C@@H]2[C@H]1C(=O)N(Cc1ccccc1)[C@H]2c1cccc(Br)c1
-0.2	-2%	COc1ccc(C2CC(c3cccs3)=NN2C(=O)CCCC(=O)O)cc1OC (centres undefined)
11	-1%	COc1cc(/C=N/N2CCN(Cc3ccccc3)CC2)cc(OC)c1OC
0.9	-13%	CS(=O)(=O)c1ccc2nc(NC(=O)CCNC(=O)c3ccc(Cl)cc3)sc2c1
u	-15%	COc1ccc2oc(C(=O)OCC(=O)NCc3ccc(OC)c(OC)c3)c(C)c2c1
0.6	-3%	CSCCC(NC(=O)c1ccco1)C(=O)NCc1ccc2c(c1)OCO2 (centres undefined)
-1.7	-2%	Cc1onc(-c2ccccc2)c1C(=O)OCC(=O)Nc1ccccc1

Profiles, quoted from the list:
`Cc1ccc(CN2CC(C(=O)Nc3ncc(C)s3)CC2=O)cc1` (centres undefined) is listed with AF4-AF9 inh = 3.8; Vif TR-FRET = 5%
`CN(C(=O)c1cccc(NC(=O)Cc2cccc(NC(=O)C3CCCN(C(=O)C4CCC4)C3)c2)c1)C1CCC1` (centres undefined) is listed with AF4-AF9 inh = -3.6; Vif TR-FRET = 10%
`COc1ccc2oc(C(=O)OCC(=O)NCc3ccc(OC)c(OC)c3)c(C)c2c1` is listed with AF4-AF9 inh = u; Vif TR-FRET = -15%

Assay outcomes as filed in PubChem.
